HPGD block: blocks human HPGD enzyme activity; P15428; purified HPGD, NADH fluorescence kinetic, PGE2 substrate; Potency, µM, inactives show at the highest dose activity change, negative = inhibition, usual class: inhibitors; hit rate 4.3% among 150,000; AID 894; active = well fitted inhibition curve with a large enough effect (not every such curve was filed as active); inconclusive = small, poorly fitted or top-dose-only effect, or another doubt; inactive = no such curve, though single readings can be large or run the other way;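 note: top concentration of the series not given in the record; plate controls included wells without enzyme; inactives centre near -10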
Target sequence (P15428 whole entry, looked up): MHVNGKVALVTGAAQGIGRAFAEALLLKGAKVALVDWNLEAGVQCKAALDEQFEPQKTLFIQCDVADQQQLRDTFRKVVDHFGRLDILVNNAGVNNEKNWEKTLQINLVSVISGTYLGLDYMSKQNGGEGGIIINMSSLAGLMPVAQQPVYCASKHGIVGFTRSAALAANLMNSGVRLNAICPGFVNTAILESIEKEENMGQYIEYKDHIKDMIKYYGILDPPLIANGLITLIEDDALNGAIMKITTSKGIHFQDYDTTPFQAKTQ
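NADH formation kinetics: reaction with 30 uM PGE2 and 1 mM NAD+ (final), 20 nM enzyme, Tris-HCl pH 8 with Tween 20, after 15 min compound preincubation at room temperature. Fluorescence change, last versus first of five reads.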
Starred values were filed as active, the others as inactive; ? = inconclusive; & = joins results of further samples. % is set by controls: 0 for no effect and ±100 for the full control effect; potency is the fitted concentration of half-maximal effect.

Structure | HPGD block
CC(C)C(C(=O)NCC1CCCO1)N(Cc1ccco1)C(=O)CNS(=O)(=O)c1ccc(F)cc1 (stereo not drawn) | -1%
CC1(C)CC(=O)c2c(-c3cccnc3)n[nH]c2C1 | -19%
CCOC(=O)C1CCN(S(=O)(=O)c2ccc(Cl)cc2OC)CC1 | -5%
COc1cc2c(cc1NC(=O)CN(C)Cc1cccc(OC)c1OC)oc1ccccc12 | ?
CCCCS(=O)(=O)N1CCc2nc(-c3ccc(OC)cc3C)c3c(c2C1)CO[C@@H](c1ccccc1)C3 | -5%
O=C(Nc1ccc(Br)cc1)c1cccnc1N1CCCCC1 | -18%
COCCCNC(=O)CCc1nc2cccnc2n1Cc1ccccc1 | 1%
COc1ccc(C(=O)Nc2cc(C)ccc2NC(=O)COc2ccccc2)cc1 | 1%
O=c1[nH]c(=S)[nH]c(-c2ccccc2)c1Cc1c(O)ccc2ccccc12 | -29%
O=c1c2ccccc2c(=O)n(Cc2ccccc2)n1Cc1ccccc1 | -14%
COCCNC(=O)CSc1nc2nc(C)cc(C)n2n1 | 20µM*
CN(CCNC(=O)c1cccc(N2CCCC2=O)c1)Cc1ccccc1 | -10%
CCCCC(=O)NC(c1ccc([N+](=O)[O-])cc1)c1c(O)ccc2ccccc12 (stereo not drawn) | -6%
CCOc1ccc(C2C=C(c3ccccc3)Nc3ncnn32)cc1 (stereo not drawn) | ?
Cc1cc(C(=O)N/N=C2\CC(=O)CC(C)(C)C2)c(C)n1-c1ccc(F)cc1 | -10%
COc1cc(N2CCCC2)c(OC)cc1/C=C(/C#N)c1cccc(Br)c1 | -13%
COC(=O)C1=C(C(=O)OC)C2(OC1c1cccc(F)c1)C(=O)c1ccccc1C2=O (stereo not drawn) | -14%
COC(=O)c1c(O)c2ccccc2[nH]c1=O | -17%
COn1c(-n2nc(C)cc2C)nc2ccccc2c1=O | ?
CC(C)Sc1nnc(-c2c[nH]c3ccccc23)n1C | -13%
Cn1c(N)nc2c(nc(OCc3ccccc3)n2[C@@H]2O[C@H](CO)[C@@H](O)[C@@H]2O)c1=O | 3%
COc1ccc(CCN2C(=O)CC(NCCc3ccc(S(N)(=O)=O)cc3)C2=O)cc1OC (stereo not drawn) | -2%
CCOC(=O)c1cc(C)n(-n2cnnc2)c1C | -18%
Cc1ccc2[nH]c(-c3ccc(F)cc3F)cc(=O)c2c1 | ?
COC(=O)C1=COC(O[C@H]2OC(CO)[C@H](O)C(O)C2O)[C@H]2C1C(=O)C[C@@H]2C (stereo partly drawn) | -3%
CCCCCCCCCCCCCCCCCCO | -8%
Nc1cc(C(=O)O)ccc1N1CCCCC1 | -26%
CCN(CC)C(=O)C(C)OC(=O)c1ccc(O)cc1 (stereo not drawn) | -7%
CCN(CC)CCOc1nnc(-c2ccc(C)cc2)c2ccccc12 | -2%
Cc1cc(C)nc(NS(=O)(=O)c2ccc(Br)cc2)n1 | -13%
C=CCN=C(C)C1=C(O)C(C)OC1=O (stereo not drawn) | -4%
Cn1c(CCNC(=O)c2ccco2)nc2cc(NS(=O)(=O)c3ccccc3)ccc21 | -15%
CCOC(=O)c1c(C)[nH]c(C(=O)COC(=O)CSCC(=O)N(CC)CC)c1C | -16%
C=CCN1c2ccccc2[C@]23C[C@@H](C(=O)OC)N(S(=O)(=O)c4ccc(C)cc4)C2=NC(C(=O)OC)=C(C(=O)OC)[C@H]13 | -3%
Cc1cc(NC(=O)C2CCCN(S(=O)(=O)c3cnc[nH]3)C2)ccc1Br (stereo not drawn) | -11%
Cn1c(SCc2c(F)cccc2Cl)nnc1-c1cccs1 | -7%
O=C(Cc1cn2ccsc2n1)Nc1ccccn1 | -3%
CCCNC(=O)Cn1c2ccccc2c2nc(=O)cc(C)n21 | ?
CCOC(=O)COc1ccccc1/C=C\[N+](=O)[O-] | 16µM*
O=S(=O)(Nc1nc2ccccc2nc1NCC1CCCO1)c1cccs1 (stereo not drawn) | -8%
Nc1nc(NC(=O)/C=C/c2ccccc2)nn1-c1ccccc1 | -3%
COC(=O)c1[nH]c2cccc(OC)c2c1NC(=O)CCN1CC(C)CC(C)C1 (stereo not drawn) | ?
COc1ccccc1N1CCN(C(=O)c2cccc(N3C(=O)NC4CC3(C)Oc3ccccc34)c2)CC1 (stereo not drawn) | -12%
COc1ccc(-c2cnnc(N/N=C/c3ccc(O)c(OC)c3)n2)cc1 | -8%
CN(C)C(=O)c1ccc2c(c1)n(C)c(=O)n2C | -12%
COc1cc(C(=O)Nc2nc3ccccc3[nH]2)cc(OC)c1OC | -5%
CSc1nc(NC(C)C)nc(N2CCOCC2)n1 | 9%
O=S(=O)(c1ccccc1)N1CCC2(CCN(c3ncccn3)CC2)CC1 | -13%
O=C(C1CCN(S(=O)(=O)c2cccs2)CC1)N1CCc2ccccc2C1 | -24%
O=C(Cn1nnc2ccccc2c1=O)N1CCCc2ccccc21 | -5%

Shown as labelled records: two of the compounds above
mol: C=CCN1c2ccccc2[C@]23C[C@@H](C(=O)OC)N(S(=O)(=O)c4ccc(C)cc4)C2=NC(C(=O)OC)=C(C(=O)OC)[C@H]13
  HPGD block: -3%

mol: Cc1cc(NC(=O)C2CCCN(S(=O)(=O)c3cnc[nH]3)C2)ccc1Br (stereo not drawn)
  HPGD block: -11%

(more compounds)
Structure | HPGD block
CC(=O)Nc1ccc(Nc2ncnc3c2cnn3-c2cccc(C)c2)cc1 | ?
COC(=O)[C@@]1(Cc2ccc(F)cc2)[C@H]2c3cc(C(=O)N4CCCC4)n(CCc4ccc(O)c(O)c4)c3C[C@H]2CN1C(=O)c1ccccc1 | -24%&-21%
COc1ccc(OC)c(C(=O)COC(=O)c2c(OC)cccc2OC)c1 | -5%
O=C1OCCN1C(=O)[C@H]1[C@H](c2ccc(F)cc2)C(c2ccccc2)=NN1c1ccc(Br)cc1 | ?
COc1cccc(OCC(O)CN(CCO)Cc2ccccc2)c1 (stereo not drawn) | -10%
COc1ccccc1/C=C/C1=NC(=C\N(C)C)/C(=O)O1 | ?
Cc1cccc(C2=NN(c3ccccc3)[C@H](CO)[C@H]2C)c1 | ?
CC(C(=O)Nc1cccc(Br)c1)c1ccc([N+](=O)[O-])cc1 (stereo not drawn) | -23%
CCOC(=O)CNC(=O)CSc1ncnc2c1cnn2-c1ccc(OC)cc1 | ?
Cc1oc(-c2ccc(Cl)cc2)cc1-c1nn2c(-c3ccco3)nnc2s1 | -23%
COc1ccc(/C=C/C(=O)NC(=S)NNC(=O)c2ccco2)cc1 | ?
CCOC(=O)CCn1cc(F)c(=O)n(Cc2ccccc2)c1=O | -13%
O=C(CNS(=O)(=O)/C=C/c1ccccc1)OCC(=O)N1CCC(Cc2ccccc2)CC1 | -3%
COc1ccc(Cn2nnnc2C(C(C)C)N(Cc2ccco2)Cc2cccs2)cc1 (stereo not drawn) | -6%
O=C1CC(SCCO)C(=O)N1c1ccccc1 (stereo not drawn) | 0%
CC(=O)Nc1ccc(Cc2ccncc2)cc1 | -15%
CC(C)C(=O)Nc1cccc(NC(=O)c2ccc(Cl)cc2Cl)c1 | -4%
O=C(NN1C(=O)c2ccccc2C1=O)C1CC2CCC1C2 (stereo not drawn) | -17%
c1ccc(-c2ccccc2OCCn2cncn2)cc1 | -1%
CCCn1nnnc1SCC(=O)NCc1ccccc1 | -1%
NCC1O[C@@H](O[C@H]2C(O)C(O[C@@H]3C(O[C@H]4OC(CO)C(O)C(O)C4N)C(N)CC(N)[C@H]3O)O[C@@H]2CO)C(N)C(O)C1O (stereo partly drawn) | 2%
CCCN1CCc2[nH]c(=S)[nH]c(=O)c2C1 | -17%
CCC1=Nc2ccc(Br)cc2C(c2ccccc2)N1CC(=O)OC (stereo not drawn) | -3%
CCOC(=O)c1sc(NC(=S)NC(=O)CC(C)C)cc1C | -20%
CC(=O)C1=C(C)N(CC2CC2)C(=O)N[C@H]1c1cccs1 | -6%&-4%

Part of the list above in another layout:
CCC1=Nc2ccc(Br)cc2C(c2ccccc2)N1CC(=O)OC (stereo not drawn)
  HPGD block = -3%
CC(C(=O)Nc1cccc(Br)c1)c1ccc([N+](=O)[O-])cc1 (stereo not drawn)
  HPGD block = -23%
CC(=O)C1=C(C)N(CC2CC2)C(=O)N[C@H]1c1cccs1
  HPGD block = -6%&-4%
CCOC(=O)c1sc(NC(=S)NC(=O)CC(C)C)cc1C
  HPGD block = -20%

More compounds follow.
Structure | HPGD block
Clc1ccc2nc(N3CCNCC3)nc(-c3ccccc3)c2c1 | -15%
O=C(NNC(=O)c1cc([N+](=O)[O-])ccc1Cl)c1cccs1 | -9%
Cc1cc(/C=C(\C#N)C(=O)NCc2ccco2)c(C)[nH]1 | -11%
CSc1ccccc1C(=O)N1CCN(c2ccc(F)cc2)CC1 | -14%
Cc1cccc(-n2c(CNC(=O)c3ccc(S(=O)(=O)N(C)C)cc3)nnc2SCC(=O)Nc2ccc(F)cc2)c1 | -13%
Brc1ccc(-c2nc(-c3ccccc3)no2)o1 | -5%
CCCCCOc1ccc(Cl)cc1CN1CCOCC1 | -2%
Cc1nn(C)cc1CNC(=O)Nc1ccc(Br)cc1Cl | -11%
Cc1ccc(N2C=Nc3ccc(C)c4nc(C)cc2c34)cc1 | -28%
O=C1C2CCCN2C(c2ccccc2F)N1c1cccc(Cl)c1 (stereo not drawn) | -6%
COC(=O)[C@@]1(Cc2ccc(OC)cc2)[C@H]2c3cc(C(=O)N4CCCC4)n(CCn4cc([N+](=O)[O-])nc4C)c3C[C@H]2CN1C(=O)c1ccccc1 | -11%&-5%
Cn1c(N)c(C(=O)COC(=O)c2cccc(S(=O)(=O)N3CCCCC3)c2)c(=O)n(C)c1=O | -16%
O=C(c1cccnc1)N1C2CCC1CC(O)(c1ccc(F)cc1)C2 (stereo not drawn) | -6%
Brc1ccc(-c2nn3c(-c4ccco4)nnc3s2)o1 | -13%
Cc1ccc(C)c(NC(=O)Cn2c([N+](=O)[O-])cnc2C)c1 | -8%
CCCCOC(=O)c1nc(Cl)c(Cl)c(N)c1Cl | -12%
CCN(CC)c1ccc2cc(S(=O)(=O)c3ccc(Cl)cc3)c(=O)oc2c1 | -17%
COCC(=O)N1CCC[C@@]2(CCN(C(=O)Nc3cccc(C#N)c3)C2)C1 | -10%
COc1ccc(OC)c(C2C(C(=O)Nc3cccnc3)=C(C)NC3=C2C(=O)CCC3)c1 (stereo not drawn) | -10%
Cc1ccccc1Nc1nc(N)nc(COC(=O)C2CCCCC2)n1 | -6%
CS(=O)(=O)c1ccc(Cl)c(C(=O)O)c1 | -5%
C=CCn1c(CCC(=O)O)ccc1-c1ccc(OC)cc1 | -21%
C=CCOC(=O)CCC(=O)Nc1cccc2ccccc12 | -12%
O=C(NCCN1CCOCC1)c1cc(-c2ccco2)on1 | -3%
O=C(/C=C/Nc1ccc(F)cc1F)c1cccs1 | ?
N#Cc1ccc(-c2ccc(Cl)cc2)nc1SCC(=O)c1cccc(Cl)c1 | -13%
Cc1nnsc1C(=O)NC1CCCCC1 | -7%
CC(=O)c1cc(-c2ccccc2)n(CCC(=O)NCc2cccs2)c1C | -15%
COc1ccc(-c2cc(N)n(CCC#N)n2)c(OC)c1 | -12%
COc1ccc(-c2nnc(SCC(=O)N3CCCCC3)o2)c(OC)c1 | ?
O=C(Cn1ncc2c(=O)oc3ccccc3c21)NCC1CCCO1 (stereo not drawn) | 2%
c1ccc2c3c([nH]c2c1)-c1[nH]ncc1CC3 | ?
CCOC(=O)C1CCN(C(=O)COc2ccc(Cl)cc2Cl)CC1 | -1%
CC12CCC(C(=O)N(CSC(=S)N/N=C\c3ccccc3)C1=O)C2(C)C (stereo not drawn) | -29%
CCOC(=O)NC[C@H](Cc1ccc(OCCc2nc(-c3ccccc3)oc2C)cc1)N/C(C)=C\C(=O)c1ccc(C(F)(F)F)cc1 | ?
O=C1CC(SCc2nc3ccccc3[nH]2)C(=O)N1c1ccc(F)cc1 (stereo not drawn) | -12%
COc1ccc(NC(=O)c2cccc(C#N)c2)cc1NS(=O)(=O)c1ccc(F)cc1 | -8%
NCCCNCCCCNCCCN | -7%&-3%
CC(C)n1nnnc1SCC(=O)NCc1cccs1 | -16%
CN1CCN(C(=O)/C(=C/c2cccs2)NC(=O)c2cccs2)CC1 | -11%
O=C(Nc1ccccc1OC(F)F)c1ccc(F)cc1 | -11%
CC(=O)NNc1ncnc2ccccc12 | -12%
O=C(OCc1nc2ccc(Cl)cc2n1CCO)c1ccccc1C(=O)c1ccccc1 | 0%
Cn1cccc1Cc1nnc(SCC(=O)Nc2ccccc2F)n1-c1ccc(F)cc1 | 3%
O=C(Nc1cc(C(=O)N2CCOCC2)cc(C(=O)N2CCOCC2)c1)c1cc(F)c(F)cc1Cl | 1%
Clc1cnc(N/N=C/c2ccco2)c(Cl)c1 | -27%
O=C(NCc1ccccc1)N1CCN(c2ccc(Cl)c(Cl)c2)CC1 | 8%
CCCC(C)C(=O)Nc1nc(C)c(-c2csc(Nc3cc(Cl)ccc3C)n2)s1 (stereo not drawn) | -23%
COc1ccc(-c2cc(=O)[nH][nH]2)cc1OC | -1%
CCCCCC1=C2CNC(CC(C)C)(C(=O)OC)C=C2C(C)C1=O (stereo not drawn) | -14%
CCOC(=O)c1c(NC(=O)CSc2nnc(CNc3ccc(OC)cc3)n2C)sc(C)c1C | -5%
COc1ccc(OC)c(C2C3=C(N=c4s/c(=C\c5cccc(O)c5)c(=O)n42)c2ccccc2CC3)c1 (stereo not drawn) | -28%
COc1ccc(NC(=O)CCCn2c(=O)c3sccc3n(Cc3ccc(C)cc3C)c2=O)cc1 | -6%

Source: PubChem BioAssay

Only part of the results is shown. The share of hits here may be higher or lower than overall.
